# Compound activity: PubChem BioAssay, several laboratories
# PrP UTR inh: inhibition of PrP 5' UTR reporter expression; AID 488862; inhibition, % (test concentration not listed); 340,000 tested, 0.35% active; cell-based PrP 5' UTR mRNA reporter, plate reader;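 active = every replicate at 50% or more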;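 note: 0 = median of the neutral control wells; tested in H4 reporter cells; numbers are from one replicate; inactives centre near -14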
# RN4220 kill: kills Staphylococcus aureus RN4220; S. aureus RN4220 growth, OD600, 16 h; inhibition, % (no concentration beside the values); 330,000 tested, 0.33% active; AID 1259311;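 active = z-score of -3 or lower and OD600 up to 0.18 on both plates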;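 note: plate controls were untreated cells for no effect and reference antibiotic for full effect; stock transfer was 100 nL into about 80 µL; one replicate is shown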
# Mtb hypoxia rep: Mtb hypoxia fluorescent reporter inhibition. M. tuberculosis hypoxia-regulated fluorescent reporter, fluorescence. fluorescence inhibition, % (no concentration beside the values). 300,000 tested, 0.1% active. AID 1159583;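 active = 35 to 45% if threefold the growth effect, above 45% if 1.5-fold the growth effect; inactive = the rest, general growth blockers included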;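 note: wells of about 50 µL received 100 nL stock; 0% = vehicle wells and 100% = reference inhibitor wells; whole bacteria with a GFP reporter of the hypoxia response; strong numbers were not always called active; many hits fall short of the cut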
# Bead autofluor: counter-screen for toxin protease inhibitors: compound fluorescence; compound autofluorescence counterscreen, microsphere flow cytometry; hits give high values; fluorescence intensity (concentration not given with the values); 360,000 tested, 3.1% active;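 active = at least 3 SD above the mean of all compounds, about 16000 in these data; inconclusive = too few beads counted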;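 note: 100 nL of 1 mM stock went into each well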
# ugtP null kill: growth inhibition of S. aureus ugtP deletion strain; S. aureus RN4220 ugtP deletion, OD600 growth, 16 h; some inactives read as strong as hits; growth inhibition, % (no concentration beside the values); 330,000 tested, 0.54% active; AID 1259309;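 active = z-score under -3 and OD600 up to 0.15 on both plates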;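 note: plate controls were untreated wells for no effect and antibiotic for full effect; wells of about 80 µL received 100 nL stock; the first replicate is given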
# BJeLR viability: kills HRASV12-expressing BJeLR cells. BJeLR (HRASV12) viability, CellTiter-Glo ATP luminescence, 48 h; reference of the scale not given here. inhibition, % (no concentration beside the values). 300,000 tested, 0.17% active. AID 1554;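 active = replicate mean above 50%; inconclusive = above 50% but judged a plate artefact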;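 note: 50 nL library stock added to about 25 µL; numbers are from one replicate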
# Mtb hypoxia rep growth: recorded beside Mtb hypoxia rep, whose call it bears; growth inhibition, %; measured here: M. tuberculosis growth (absorbance);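 0% = vehicle and 100% = reference antibiotic; read after six days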
# An asterisk follows results filed as active; ? = inconclusive; / = no result given.
nr	canonical_smiles	PrP UTR inh	RN4220 kill	Mtb hypoxia rep	Mtb hypoxia rep growth
1	Cc1cc(OCC(=O)Nc2ccccc2F)nc(C(C)C)n1	-1.8	2.0	4.0	3.8
2	CCCOc1nc2ccccc2cc1/C=C/C(=O)O	-22.2	3.3	-5.0	4.4
3	c1ccc2c(c1)OCC(CNc1ncnc3nc[nH]c13)O2 (configuration not stated)	-8.3	7.2	-4.2	-3.5
4	CC(=Nc1ccc(O)cc1)c1sc2ccccc2c1O	-134.9	-3.1	/	/
5	CCN(CC)S(=O)(=O)c1ccc(C(=O)NCC(=O)N/N=C/c2ccccc2OC)cc1	-27.1	/	/	/
6	COc1ccc(C=NN=Cc2ccc(OC)c(O)c2)cc1O	/	1.0	7.6	3.1
7	CCOC(=O)C(=NCCOC)NNc1cc(Cl)ccc1Cl	-23.8	-2.0	0.5	-4.7
8	CC(=O)c1c(C)[nH]c(C(=O)OCC(=O)Nc2cc(S(=O)(=O)N3CCCC3)ccc2Cl)c1C	-26.6	5.0	2.9	-6.2
9	O=C(O)C1CC(c2ccccc2F)=NO1 (configuration not stated)	3.8	2.9	8.7	3.9
10	COc1ccccc1-c1nnc2n1N=C(C(C)(C)C)CS2	-22.9	2.0	8.7	9.0

nr	Bead autofluor	ugtP null kill	BJeLR viability
1	?	1.9	16.3
2	4935	-3.4	-0.5
3	5166	1.2	-9.3
4	4855	10.1	0.1
5	4583	/	-14.7
6	/	5.5	/
7	2219	6.3	-0.6
8	10398	-7.8	-5.1
9	15509	10.0	-7.9
10	5514	-0.8	-5.8

# Ordered by molecular weight (lowest first): part of the list above
nr	canonical_smiles	PrP UTR inh	RN4220 kill	Mtb hypoxia rep	Mtb hypoxia rep growth
3	c1ccc2c(c1)OCC(CNc1ncnc3nc[nH]c13)O2 (configuration not stated)	-8.3	7.2	-4.2	-3.5
10	COc1ccccc1-c1nnc2n1N=C(C(C)(C)C)CS2	-22.9	2.0	8.7	9.0
1	Cc1cc(OCC(=O)Nc2ccccc2F)nc(C(C)C)n1	-1.8	2.0	4.0	3.8

nr	Bead autofluor	ugtP null kill	BJeLR viability
3	5166	1.2	-9.3
10	5514	-0.8	-5.8
1	?	1.9	16.3

# The list continues:
nr	canonical_smiles	PrP UTR inh	RN4220 kill	Mtb hypoxia rep	Mtb hypoxia rep growth
11	c1ccc2c(c1)CC(CN1CCNCC1)O2 (configuration not stated)	-33.6	5.8	1.8	14.9
12	COc1ccc(S(=O)(=O)N(C)c2nc3ccccc3n3c(CC(C)C)nnc23)cc1	5.5	-0.3	-7.6	10.0
13	Cc1ccc(NC(=O)CSc2nnc(/N=C/N(C)C)s2)cc1	-25.9	/	/	/
14	COc1ccc(CNC(=O)C2(c3ccc(Cl)cc3)CC2)cc1	-15.0	2.4	0.4	3.9
15	COc1cc(OC)c2c(-c3cccc(-c4cccc(C)c4)c3)cc(=O)oc2c1	-41.5	-7.4	6.1	-3.1
16	O=C(Nc1ccc2c(c1)CCC2)c1ccc(Br)o1	-101.5	-2.9	/	/
17	C#CCOCCOCCOCCNc1nc(N2CCN(C(=O)C(CCC(=O)O)n3cc(C(N)Cc4ccc(O)cc4)nn3)CC2)nc(N2CCN(C(=O)C(C(C)CC)n3cc(C(N)Cc4ccc(O)cc4)nn3)CC2)n1 (configuration not stated)	/	4.0	3.3	10.7
18	COc1ccccc1N1CCN(C(=O)c2nn(-c3ccccc3OC)c(=O)c3ccccc23)CC1	-9.0	1.1	/	/
19	N#CC(=Cc1ccc(O)c(O)c1)C(=O)N1CCc2ccccc21	/	12.8	9.3	-1.1
20	COc1cc2cc(C(=O)N3CCN(Cc4ccc5c(c4)OCO5)CC3)[nH]c2cc1OC	1.4	0.7	-4.6	3.4

nr	Bead autofluor	ugtP null kill	BJeLR viability
11	4121	12.9	-5.5
12	5583	-1.9	1.1
13	4274	/	-3.0
14	2057	7.6	-8.4
15	2947	-3.4	/
16	2854	-7.8	1.7
17	/	2.7	/
18	5144	-4.1	/
19	/	-2.5	/
20	5896	-1.8	-3.5

# The results go on:
nr	canonical_smiles	PrP UTR inh	RN4220 kill	Mtb hypoxia rep	Mtb hypoxia rep growth
21	COc1ccc(CCN(C)C(=O)c2ccc(OCC(=O)N3CCOCC3)c(OC)c2)cc1OC	-8.5	2.7	7.8	-3.0
22	CN1C(=O)CC(N2CCC(c3nc4ccccc4s3)CC2)C1=O (configuration not stated)	-34.3	7.3	22.0	4.6
23	CCn1c(SCc2nc3ccccc3s2)nnc1-c1cccs1	-47.0	12.9	2.8	5.5
24	Cc1c(N=C2NN=C(c3c[nH]c4ccccc34)CS2)c(=O)n(-c2ccccc2)n1C	-10.2	2.5	2.3	-0.8
25	Cn1c(=O)oc2cc(S(=O)(=O)N3CCOCC3)ccc21	-10.4	-12.4	13.5	3.3
26	C=CCn1c(Sc2nnc(C)s2)nc2c1c(=O)[nH]c(=O)n2C	-13.9	5.8	3.8	3.4
27	Oc1c(Cl)cc(Cl)cc1/C=N/NC(=S)NC1CC2C=CC1C2 (configuration not stated)	2.6	/	/	/
28	COc1ccc2oc(C(=O)OCC(=O)N3CCCCC3)c(C)c2c1	-26.7	1.9	2.1	-11.8
29	CCOC(=O)N1CCC(c2cc(=O)n(-c3ccccc3)[nH]2)CC1	1.5	7.1	7.1	2.9
30	CC[C@H](NC(=O)c1c(C)c(-c2ccccc2)nc2ccccc12)c1ccccc1	-23.6	/	/	/

nr	Bead autofluor	ugtP null kill	BJeLR viability
21	?	5.3	5.0
22	4687	1.0	-6.4
23	10190	16.7	-7.1
24	5432	2.6	4.5
25	2942	-5.0	-0.4
26	9726	2.7	-9.6
27	3182	/	0.7
28	/	3.9	2.0
29	5028	5.7	0.5
30	4648	/	-3.2

# Part of the list above, showing only Bead autofluor and Mtb hypoxia rep growth.
nr	SMILES	Bead autofluor	Mtb hypoxia rep growth
30	CC[C@H](NC(=O)c1c(C)c(-c2ccccc2)nc2ccccc12)c1ccccc1	4648	/
29	CCOC(=O)N1CCC(c2cc(=O)n(-c3ccccc3)[nH]2)CC1	5028	2.9
28	COc1ccc2oc(C(=O)OCC(=O)N3CCCCC3)c(C)c2c1	/	-11.8

# The results go on:
nr	canonical_smiles	PrP UTR inh	RN4220 kill	Mtb hypoxia rep	Mtb hypoxia rep growth
31	N#CC1(NC(=O)CSc2nc3ccccc3s2)CCCCC1	-10.1	5.5	8.3	0.6
32	CCN(C(=O)COC(=O)c1oc2ccc(OC)cc2c1C)C1CCS(=O)(=O)C1 (configuration not stated)	-21.5	4.5	3.2	5.9
33	Cc1nnc2n1N=CC=C(c1ccccc1)S2	5.5	2.8	17.4	7.0
34	CC(C)C(NC(=O)c1cccnc1)C(=O)O (configuration not stated)	-8.3	0.1	7.1	4.6
35	COc1ccc(NC(=O)COC(=O)c2cc(OC)c(OC)c(OC)c2)c([N+](=O)[O-])c1	-6.2	3.0	4.8	3.4
36	CN(C)Cc1c(C(=O)NN=Cc2cccc3ccccc23)nnn1-c1nonc1N	/	-0.1	2.7	-4.1
37	CC1CCC2(CC1)NC(=O)N(NC(=O)CCc1c[nH]c3ccccc13)C2=O (configuration not stated)	-18.4	4.0	6.7	-1.5
38	O=C(CC1SC(=Nc2ccccc2)N(CCCCO)C1=O)NCc1ccccc1 (configuration not stated)	3.9	2.7	-0.6	4.5
39	COC(=O)c1cccc(C23CC4(C2)C(CN(Cc2ccc(C(F)(F)F)cc2)C4c2ccccc2)C3c2ccccc2)c1 (configuration not stated)	/	6.7	0.3	-3.4
40	CCC(=O)N(CCc1ccccc1C)Cc1cc2ccc(C)cc2[nH]c1=O	-12.1	6.0	20.0	0.4

nr	Bead autofluor	ugtP null kill	BJeLR viability
31	3927	7.3	/
32	5651	6.4	/
33	8594	-1.8	0.1
34	4867	-0.2	2.0
35	3363	2.6	4.8
36	/	-2.2	/
37	?	1.8	/
38	3414	3.4	-16.0
39	/	3.8	/
40	/	2.5	-1.1

# (next part)
nr	canonical_smiles	PrP UTR inh	RN4220 kill	Mtb hypoxia rep	Mtb hypoxia rep growth
41	CN1C(=O)c2cccc3c(S(=O)(=O)N(C)C)ccc1c23	-9.0	7.0	-2.1	2.0
42	COc1ccc(N=C2SC(CC(=O)Nc3ccc(F)cc3)C(=O)N2Cc2ccco2)cc1 (configuration not stated)	-21.7	-7.6	-8.3	4.9
43	COc1ccc(CNC(=O)CSc2n[nH]c(N)n2)cc1	-9.5	1.4	-8.0	-0.3
44	Cc1cccc(NC(=O)c2sc(C)nc2C)c1	-33.9	1.9	2.3	12.0
45	CCN(CC)CCOC(=O)c1ccc(NC(=O)CSc2nnc(-c3cccs3)n2CC)cc1	-12.9	5.7	-6.5	2.5
46	O=C(NNC(=O)c1sc2ccccc2c1Cl)Nc1ccc(Cl)cc1	-18.8	2.1	4.8	13.4
47	O=C(NC1CCN(Cc2ccccc2)CC1)C1CCN(S(=O)(=O)c2ccc(Cl)cc2)CC1	-12.6	-3.0	-1.8	3.1
48	CCC(C)/C(C)=N/Nc1ccc(S(N)(=O)=O)cc1[N+](=O)[O-] (configuration not stated)	-18.4	/	/	/
49	CC(/C=C/c1ccc2c(c1)OCO2)=NNC(=O)c1cccc([N+](=O)[O-])c1	/	2.3	3.7	-3.9
50	CCN(C(=O)CSc1nnc(-c2ccc3c(c2)OCO3)o1)C1CCS(=O)(=O)C1 (configuration not stated)	-11.0	3.7	-0.7	-12.1

nr	Bead autofluor	ugtP null kill	BJeLR viability
41	3690	4.0	-10.6
42	2235	-8.0	5.7
43	4895	0.5	-4.2
44	3976	0.0	-3.6
45	3630	6.2	/
46	3195	-9.6	13.0
47	3940	-2.0	2.4
48	3422	/	5.6
49	/	-0.9	/
50	/	-14.0	/

# (continued)
nr	canonical_smiles	PrP UTR inh	RN4220 kill	Mtb hypoxia rep	Mtb hypoxia rep growth
51	CCN(CC(=O)Nc1c(F)cccc1F)C(=O)C1CCN(C(=O)c2ccc(F)cc2)CC1	-15.9	-1.0	10.1	-7.4
52	NC(=O)NOCc1ccccc1	-17.7	-3.3	-2.8	13.3
53	Cc1cc(Cl)ccc1NC(=S)NC1CCCC1	-10.4	-9.1	-0.9	-7.8
54	CCN(Cc1ccncc1)Cc1ccc(OC)c(OC)c1	-15.2	3.9	-3.6	3.5
55	COC(=O)C1=C(c2ccc3ccccc3c2)C[C@@H]2CC[C@H]1N2C(=O)NC1CCCCC1	1.7	-23.8	-4.7	6.1
56	Oc1ccc(CNc2ccccc2O)cc1	-26.9	9.7	16.1	16.5
57	Cc1cccc(NC(=O)CCNS(=O)(=O)c2ccc(Cl)cc2)c1	-14.8	16.4	-14.0	-3.3
58	CCc1sc(C(=O)N2CCN(C(=O)c3ccccc3)CC2)cc1C	/	5.5	9.7	6.2
59	CCOc1ccc(N=C2NC(=O)SC2=Cc2ccc(O)cc2)cc1	/	5.5	4.9	5.5
60	COC(=O)CN1C(=O)S/C(=C/c2ccc(N3CCCCC3)o2)C1=O	-32.6	0.4	-9.1	5.8

nr	Bead autofluor	ugtP null kill	BJeLR viability
51	6403	7.2	9.7
52	3118	-15.6	-5.0
53	3469	8.0	-8.0
54	4127	-0.6	-19.0
55	2890	-5.0	/
56	3593	1.3	-2.7
57	3328	7.3	-4.3
58	/	4.9	/
59	/	-12.4	/
60	12897	-10.8	1.4

# Next part
nr	canonical_smiles	PrP UTR inh	RN4220 kill	Mtb hypoxia rep	Mtb hypoxia rep growth
61	CN(C)c1ccc(C(=O)Nc2nc3c(s2)CCCC3)cc1	4.2	-0.5	4.3	6.1
62	Oc1ccc(N=Nc2nc(-c3ccccc3)c(-c3ccccc3)[nH]2)cc1	-25.1	-10.7	5.3	4.7
63	COc1ccc(C2CC(c3cccs3)=Nc3ccccc3S2)cc1 (configuration not stated)	-82.8	13.6	18.3	13.8
64	COc1ccc2cc1Oc1ccc(cc1)CC1c3c(cc(OC)c4c3Oc3cc5c(cc3O4)CCNC5C2)CCN1C (configuration not stated)	-2.1	-2.9	/	/
65	Cc1ccc(-n2c(C)csc2=N)cc1	-37.9	-1.6	2.0	1.9
66	COc1ccc(C(=O)Oc2cccc(/C=N/NC(N)=S)c2)cc1	-7.8	/	/	/
67	CC(NC(=O)/C(C#N)=C/c1ccc(C(=O)O)cc1)c1ccccc1 (configuration not stated)	0.8	5.1	-5.9	14.5

nr	Bead autofluor	ugtP null kill	BJeLR viability
61	5428	8.2	14.2
62	2907	77.0	4.4
63	10375	9.2	9.3
64	5868	10.2	0.0
65	8060	-3.6	12.5
66	2162	/	-10.8
67	4695	7.0	1.0
